H5N1 CPE: antiviral screen in MDCK cells, H5N1 avian flu | cytopathic effect, luminescence, 72 h; stronger effect = higher value; no value below 0 was filed and about half of the inactive calls have no number; reference of the scale not given here | inhibition, % at 50 µM | actives 0.07% (n = 96,000); in the data active = inhibition above about 25%
The depositor's hits bear a star; i = inactive.

SMILES	H5N1 CPE
CC1CCC(C(=O)NC(C(=O)N2CCC3(CC2)OCCO3)C(C)C)CC1 (configuration not stated)	0.4
O=C(COC(=O)C1c2ccccc2Oc2ccccc21)Nc1ccc2c(c1)OCO2	0.3
COC(=O)c1ccc(CSc2nnc(CNC(=O)c3ccc(OC)cc3)o2)o1	i
Cc1ccc(N=C(c2cccs2)N2CCOCC2)cc1	0.3
Cc1ccc(-c2nc3sc4c(c3c(=O)n2N)CC(C)(C)OC4)cc1	0.5
CN1CCN(c2ccc([N+](=O)[O-])cc2NC(=O)c2ccccc2)CC1	1.0
CCOC(=O)c1sc(=S)n2c1[nH]c(=O)c1ccc(C(=O)OC)cc12	1.4
CCN1CCN(/C=N/c2nc(C)cs2)CC1	0.3
CC(=O)c1cccc(NC(=O)N[C@@H](CC(C)C)C(=O)O)c1	i
Cc1nc(SCC(=O)Nc2c(C)n(C)n(-c3ccccc3)c2=O)[nH]c(=O)c1Cc1ccccc1	i
COc1cnn(-c2ccccc2)c(=O)c1SCc1ccc(Cl)c(Cl)c1	2.2
CC(C)(C)c1cc(S(=O)(=O)CCc2ccccn2)cc(C(C)(C)C)c1F	i
O=C(CCC1CCCCC1)NCc1ccncc1	i
O=C(COC(=O)Cc1cn2ccsc2n1)NC12CC3CC(CC(C3)C1)C2	i
Fc1ccc(Cc2nnc(-c3cccs3)o2)cc1	1.2
CCCc1nc(N2CCOCC2)c2sc(=S)n(-c3ccccc3)c2n1	1.1
Cc1cc2c3c(c1C)C1(C(=O)N3C(C)(C)CC2C)C(C#N)=C(N)Oc2n[nH]c(C)c21 (configuration not stated)	0.2
Cn1c(CSc2ncn[nH]2)nc2ccccc21	0.7
Cc1cc(NC(=O)COC(=O)c2n[nH]c3ccccc23)no1	0.2
O=c1c(-c2ccc(Cl)cc2)[n+]([O-])c2ccccc2n1OCc1ccccn1	1.6
COc1ccc(N(CC(=O)NCc2ccccc2)S(=O)(=O)c2c(C)noc2C)cc1	i
Cn1c(SCc2cccc(Cl)c2)nc(C(F)(F)F)cc1=O	0.5
COC(=O)c1ccc(C)c(NS(=O)(=O)c2ccc(C)c([N+](=O)[O-])c2)c1	0.2
Cc1cccc(NC(=O)c2ccc([N+](=O)[O-])o2)n1	1.9
COc1ccc(-c2cc3nc4c(c(=O)n3[nH]2)CCC4)cc1	i
CCOC(=O)c1c(C)nc(-c2ccccc2)nc1NC(=O)CC	0.5
C(/C=C/C=C/Nc1ccccc1)=Nc1ccccc1	0.3
CC1(C)CC(=O)C2=C(C1)OC(N)=C(C#N)C2c1ccccc1 (configuration not stated)	i
c1ccc(OCCCn2nnc(-c3ccncc3)n2)cc1	0.1
N#Cc1nc(-c2cccs2)oc1NCCCN1CCOCC1	0.8
Cc1nn2c(-c3ccc(Cl)cc3)ccnc2c1-c1ccccc1	1.1
CCn1cc(C(=O)N2CCN(Cc3ccc4c(c3)OCO4)CC2)c(=O)c2ccc(C)nc21	1.5
Cc1cc(Nc2ccc(F)cc2)n2nc(C)nc2n1	1.1
COC(=O)C1=C(C)NC2=C(C1c1ccc(O)cc1)S(=O)(=O)c1ccccc12 (configuration not stated)	0.6
O=C(CSc1nnnn1-c1cccc2ccccc12)N1CCOCC1	i
CCCNC(=O)NS(=O)(=O)c1cnccc1Sc1ccc(Cl)c(Cl)c1	0.2
CCc1nnc(NC(=O)c2ccc(S(=O)(=O)N3CCOCC3)cc2)s1	0.7
CC(C)(C)NC(=O)c1ccc2c(c1)C(=O)N(C1CCCCC1)C2=O	i
CN(C)c1ccc(NC(=O)Nc2cccc(Cl)c2)cc1	0.2
CCC1CCCCN1C(=O)CSc1nnc(-c2ccco2)o1 (configuration not stated)	2.3
COc1ccc(C(=O)N[C@H](C(=O)NCC2CCCCC2)C(C)C)cc1	i
O=C(NCc1ccco1)c1cc2n(n1)C(C(F)(F)F)CC(c1ccc(Cl)c(Cl)c1)N2 (configuration not stated)	i
CCN(CC)C(=O)CSc1nc2ccccc2c(=O)n1-c1cccc(OC)c1	0.6
CCS(=O)(=O)Nc1ccc(NC(C)=O)cc1	0.0
Cc1nc(C(=O)Nc2ccccc2Cl)cc2c1[nH]c1ccccc12	i
Cc1[nH]c(C)c2c(=O)n(-c3ccccc3)ncc12	1.4
O=C1CS/C(=C/C(=O)c2ccccc2)N1	0.4
Cc1cc(NC(=O)CSc2nc(-c3ccccc3)c(C#N)c(=O)[nH]2)no1	0.6
Cc1ccc2nc3c(cc2c1)c(NS(=O)(=O)c1ccccc1)nn3CC(C)C	0.8
Cc1nccn1CCC(=O)O	i

Next part.
SMILES	H5N1 CPE
CCOC(=O)c1c(N)n[nH]c1-c1ccccc1	10.0
CC1(C)CC(=O)C=C(NCc2cccs2)C1	i
CCCOC(=O)c1ccc(-n2nnnc2SCC(=O)N2CCCCC2)cc1	i
COc1ccc(OCC(=O)Nc2ccccc2OC(F)F)cc1	i
Cc1cc(C)nc(N2CCCC(C(=O)Nc3ccc4c(c3)OCO4)C2)n1 (configuration not stated)	i
O=C(Cn1nc(-c2ccccc2)c2ccccc2c1=O)Nc1ccccn1	0.2
Cc1cc(C(=O)OCC(=O)N2CCN(C(=O)c3ccco3)CC2)c(C)n1-c1ccc(F)cc1	0.2
CC(C)CCn1c(N2CCC(C(N)=O)CC2)nc2c1c(=O)[nH]c(=O)n2C	2.5
CCNCCNC(=O)c1c(O)c2cccc3c2n(c1=O)CCC3	i
COCCn1c(SCC(=O)c2[nH]c(C)c(C(C)=O)c2C)nc2ccccc21	i
CCN(CC)S(=O)(=O)c1c(Br)cc(C)cc1Br	3.8
O=C(O)CCc1ccc(-c2ccc(F)cc2)n1Cc1ccco1	i
CCOC(=O)N1CCC(NC(=O)C2CCN(c3ccc(N4CCOCC4)nn3)CC2)CC1	i
COc1ccc(S(=O)(=O)N2c3cc(C)ccc3OCC2C(C)(C)C)cc1 (configuration not stated)	0.5
c1ccc2c(c1)Cn1c-2nc2ccccc21	1.5
Cc1cc2n(n1)SC(Nc1ccccc1)N2 (configuration not stated)	1.3
N#CC1=C(N)SC(N)=C(C#N)C1CCc1ccccc1	1.8
C=C(C)Cn1c(SCC(=O)O)nc2c1c(=O)[nH]c(=O)n2C	0.8
CCCCCOC(=O)C1=C(C)Nc2nnnn2C1c1ccc(OC)c(OC)c1OC (configuration not stated)	i
Cn1c(COc2ccccc2)nnc1SCC(=O)c1cccc([N+](=O)[O-])c1	3.2
O=C(CSc1nc(-c2ccccc2)c(-c2ccccc2)o1)Nc1nncs1	0.4
CCCc1[nH]nc2c1C(c1cccc(OC)c1)C(C#N)=C(N)O2 (configuration not stated)	i
CC1(C)OC(=O)N(c2ccccc2)C12C=Cc1cc(Br)ccc1O2 (configuration not stated)	2.7
Cc1cc2nncn2c2ccccc12	0.4
COc1ccc(/C(CC2(O)C(=O)Nc3ccccc32)=N\O)cc1 (configuration not stated)	0.2
Cc1ccnc(NC(=O)CCC2COc3ccccc3O2)c1 (configuration not stated)	i
O=C(c1ccc(S(=O)(=O)N2CCOCC2)cc1)N1CCCc2ccccc21	0.3
CCC(C)NC(=O)Cn1cccc1C(=O)c1ccccc1 (configuration not stated)	i
O=C(Nc1nnc(-c2ccc3c(c2)CCCC3)o1)C1COc2ccccc2O1 (configuration not stated)	2.1
CN(C)S(=O)(=O)c1ccc(C(=O)Nc2ccccc2OC(F)(F)C(F)F)cc1	0.3
CCOC(=O)N1CCN(c2nc(-c3ccco3)cc(C(F)(F)F)n2)CC1	i
CCCn1c(SCC(=O)c2ccc3c(c2)OCCO3)nc2c1c(=O)n(C)c(=O)n2C	1.7
CCCCNCCOCCOc1ccc(C)cc1[N+](=O)[O-]	0.9
O=C(NC1CCCCC1)c1ccc(Br)o1	0.8
COc1ccc(-c2nnc(SC(C)C(=O)Nc3nccs3)n2Cc2ccccc2)cc1OC (configuration not stated)	0.2
CCc1nc2ccccc2c(C(=O)OCC(=O)NCCCN2CCCC2=O)c1C	3.0
O=C(Nc1ccccc1C(=O)N/N=C/c1ccc(F)cc1)c1ccccc1Br	0.1
CC(C)COc1ccc(CNC(=S)NCc2ccccc2)cc1	i
CCNc1nc(N)nc(Oc2ccc(OCCOc3ccc(Cl)cc3Cl)nn2)n1	0.1
CCOc1cc(CNC(C)(C)CO)cc(Br)c1OCc1ccc(Cl)cc1Cl	i
Cc1csc(NC(=O)c2cc(C)oc2C)n1	1.2
CCCC(=O)Nc1ccc(-c2nc3cc(C)c(C)cc3o2)cc1	0.1
CCOc1ccc(C2C(C(=O)C3CC3)N3C=C(C#N)C=CC3C2(C#N)C#N)cc1 (configuration not stated)	3.2
CC(=O)Nc1ccccc1NC(=O)CN(C)S(=O)(=O)c1ccc(C)cc1	0.2
O=C(Nc1cccc(C(F)(F)F)c1)C1CCCN1S(=O)(=O)c1cccc2cccnc12 (configuration not stated)	1.5
COc1ccc(Cl)cc1NC(=O)CCN1CCN(c2ccccc2C)CC1	i
CC(=O)/C(C#N)=C1\NC(=O)C(Cc2ccccc2Cl)S1 (configuration not stated)	4.5
Cc1cccc(NC(=O)CCS(=O)(=O)c2cccc3nsnc23)c1C	1.0
COc1ccc(C2N(C(=O)c3ccccc3)CCN2C(=O)c2ccccc2)cc1	0.4
O/N=C/c1ccc(OCC(O)COc2ccc(/C=N/O)cc2)cc1	i

New compounds follow:
Molecule	H5N1 CPE
COC(=O)c1ccc2c(=O)n(CCCCCC(=O)N3CCN(c4ccc(F)cc4)CC3)c(=O)[nH]c2c1	0.6
COC(=O)C1C2C=CC3(CN(c4cccc(C)c4)C(=O)C13)O2 (configuration not stated)	i
CCCNC(=O)C(NS(=O)(=O)c1cccc2nsnc12)c1ccccc1 (configuration not stated)	i
CCOC(=O)c1c(C)n(C)c2ccc(OCC(N)=O)cc12	0.8
CC(C)=CC(=O)Nc1ccccc1C(N)=O	i
CCOc1cc(N2CCOCC2)c(OCC)cc1NS(=O)(=O)c1ccc(Cl)s1	i
CN(c1ccc(OCC(=O)N2CCC(C(N)=O)CC2)cc1)S(=O)(=O)c1cccs1	1.8
N/C(COc1ccccc1)=N\NS(=O)(=O)c1ccccc1	0.3
CCOc1cc(C2C(C#N)=C(N)Oc3n[nH]c(CC)c32)ccc1OCCN1CCOCC1 (configuration not stated)	i
Cc1nn(-c2ccccc2)c2c1C(c1ccc(F)cc1F)C(C#N)=C(N)O2 (configuration not stated)	4.7
CCc1ccc(CNc2ccc3c(c2)ncn3C)cc1	1.9
CC(C)OC(=O)c1ccc(NC(=O)C2C3CC4OC(=O)C2C4C3)cc1 (configuration not stated)	i
Cc1ccc(O)c(CC(C)C)n1	0.6
CCOC(=O)c1cnc2c(Cl)c(Cl)ccc2c1N1CCN(C)CC1	i
Cc1ccc(NC(=O)N2CCC(O)(c3ccc(Cl)cc3)CC2)cc1	i
OC(COc1ccc2c(c1)OCO2)CN1CCc2ccccc2C1 (configuration not stated)	i
O=C(O)C12CC3CC(C1)CC(n1cnc(Cl)n1)(C3)C2	0.6
CC(C)(Oc1ccc(Cl)cc1)C(=O)OCC(=O)N1CCCC1	i
CN(Cc1ccccc1)C(=O)c1ccccc1NC(=O)c1ccco1	1.9
CCOC(=O)c1sc(=S)n(CC)c1N	i
Cc1ccc(CN2CCS(=O)(=O)CC2)cc1	i
CN1/C(=C\C(=O)COC(=O)C2COc3ccccc3O2)C(C)(C)c2ccccc21 (configuration not stated)	0.7
O=C(c1ccccc1CCc1ccccc1)N1CCOCC1	0.2
CN(CCCCC(=O)/C=N/O)Cc1ccccc1 (tested in a mixture with another compound)	0.8

Among those listed so far, these have a tert-butyl group.
Molecule	H5N1 CPE
CC(C)(C)c1cc(S(=O)(=O)CCc2ccccn2)cc(C(C)(C)C)c1F	i
CC(C)(C)NC(=O)c1ccc2c(c1)C(=O)N(C1CCCCC1)C2=O	i
COc1ccc(S(=O)(=O)N2c3cc(C)ccc3OCC2C(C)(C)C)cc1 (configuration not stated)	0.5

Following part:
Molecule	H5N1 CPE
Cc1cccc(NC(=O)CCNS(=O)(=O)c2cccc3nsnc23)c1	0.9
Cc1ccc(C(=O)CNc2ccc(Br)cc2)cc1	i
Cc1ccc(-c2nnn(CC(=O)N(Cc3cccs3)C(C(=O)NC(C)(C)C)c3ccco3)n2)o1 (configuration not stated)	1.3
COc1cc(CNCCc2ccc(F)cc2)ccc1OCc1ccc(Cl)nc1	i
O=S(=O)(c1cccc(F)c1)N1CCN(Cc2ccc3c(c2)OCO3)CC1	1.4
Cc1cc(C)c(NC(=O)CCCOC(=O)C2=COCCO2)c(C)c1	i
Cc1ccc(SCC2(O)CCN(S(=O)(=O)c3ccc(Cl)cc3)CC2)cc1	1.8
CCCC(=O)Nc1cc2c(cc1C(=O)c1ccccc1)OCCO2	0.9

Single values from the entries so far:
Result of Cn1c(COc2ccccc2)nnc1SCC(=O)c1cccc([N+](=O)[O-])c1 in H5N1 CPE: 3.2
Result of COc1ccc(/C(CC2(O)C(=O)Nc3ccccc32)=N\O)cc1 (configuration not stated) in H5N1 CPE: 0.2

Additional structures follow.
Molecule	H5N1 CPE
CCSc1nc2ccccc2n1Cc1nc(N)nc(N(C)C)n1	2.0
Cc1noc(C)c1CS(=O)(=O)c1ccc(Br)cc1	0.3
COc1ccc(OC(=O)c2cn(C)nc2C(F)(F)F)cc1	i
CCc1cc(C(=O)COc2ccccc2F)c(O)cc1O	i
CCC(CCC(=O)Nc1ccn(-c2ccccc2)n1)C(=O)O (configuration not stated)	i
CCn1c(CCNC(=O)c2cccs2)nnc1SCC(=O)NC1CCCCC1	0.2
Cc1cc(C)n2nc[n+](C)c2n1	1.1
Cc1cc(C(=O)NCCC2=CCCCC2)no1	0.1

A run of entries of the results above, for reference:
Molecule	H5N1 CPE
CCOc1cc(C2C(C#N)=C(N)Oc3n[nH]c(CC)c32)ccc1OCCN1CCOCC1 (configuration not stated)	i
Cc1nn(-c2ccccc2)c2c1C(c1ccc(F)cc1F)C(C#N)=C(N)O2 (configuration not stated)	4.7
CCc1ccc(CNc2ccc3c(c2)ncn3C)cc1	1.9
CC(C)OC(=O)c1ccc(NC(=O)C2C3CC4OC(=O)C2C4C3)cc1 (configuration not stated)	i
Cc1ccc(O)c(CC(C)C)n1	0.6

Compound activity deposited in PubChem by SRMLSC.

This is a subset. The share of hits here may be higher or lower than overall.
